# AID504770 = growth inhibition of E. coli YBA685, primary screen, V. cholerae RctB inhibitors | E. coli YBA685 rctB-dependent plasmid, OD600 growth, 3 h; hits give low values | z-score (no concentration beside the values) | 130,000 tested, 0.27% active | AID 504770, 2011;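 active means z-score under -2 on both plates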;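 further: wells of about 30 µL received 100 nL stock; score is relative to mean and SD of the test wells; the first replicate is given; strong numbers were not always called active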
# Ba CapD inh = Bacillus anthracis CapD inhibitors, primary screen, biochemical, fluorescence intensity. AID 492967, 2010. z-score (concentration not given with the values). purified CapD enzyme, fluorescence intensity read-out; hits give low values; some hits fall short of the stated cut. 140,000 tested, 0.23% active. CapD gamma-glutamyltranspeptidase (Bacillus anthracis Ames Ancestor);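 active means z-score under -4 in either of two replicates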;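 further: stock transfer was 100 nL into about 40 µL; score is relative to mean and spread of the plate; one replicate is shown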
# * marks the source's active call; other numbers are inactive results; i = inactive; . = not tested or not shown. Rows were taken by chance; overall some 0.41% were active at least once.
SMILES	AID504770	Ba CapD inh
O=C1c2ccccc2CN1CCSC(=S)N1CCCC1	-0.6	0.15
COc1cc(N)c(Cc2nccc3cc(OC)c(OC)cc23)cc1OC	-0.7	.
O=C(NC(=S)Nc1cccc2c(O)cccc12)C1CC1	0.1	.
COc1cc(C2C(C(=O)OCCOc3ccccc3)=C(C)NC3=C2C(=O)CC(C)(C)C3)cc(OC)c1O (stereo not drawn)	.	2.5
Cc1ccnc(SCc2cc(=O)c(OC(=O)c3ccco3)co2)n1	0.45	.
CN(C)c1ccc(/C=N/N2C(=O)c3ccccc3C2=O)cc1	-1.2	0.09
Cc1nc(NCc2ccccn2)c2ccccc2n1	-0.7	1.4
COCc1cc(=O)[nH]c(NC(C)=O)n1	-0.4	-0.015
Cc1ccc(CNC(=O)NCc2cccc(CNC(=O)NCc3ccc(C)n3C)c2)n1C	2.5	.
O=C(NCCCN1CCOCC1)c1ccccc1	-0.15	-0.13
CCOC(=O)C1=C(N)OC(C)=C(C(=O)OC)C12C(=O)Nc1ccccc12 (stereo not drawn)	.	-0.11
O=C(COc1ccccc1F)Nc1ncnc2nc[nH]c12	-0.7	.
CC(C)c1ccc(-c2c(C#N)c(N)n3c(nc4ccccc43)c2C#N)cc1	.	0.95
CCN=C(Nc1ccc(Cl)cc1)c1cccnc1	1.4	-0.64
NC(=O)/C=C/c1cccc(C(F)(F)F)c1	-0.85	0.47
Cc1coc(NC(=O)CSc2nc(-c3ccc(Cl)cc3)cc(C(F)(F)F)c2C#N)n1	0.7	4.4
Cc1cn2c(nc1=O)O[C@H]1C[C@H]2O[C@@H]1COC(=O)c1ccccc1	-0.8	0.87
CCOC(=O)C1=C(C)OC(N)=C(C#N)C1c1ccccc1C (stereo not drawn)	.	0.77
O=C(/C=N/O)Nc1ccc(Cl)cc1Cl	.	0.51
O=C(NC1CCCC1)C1CCC(Cn2c(=O)c3ccccc3n(Cc3cc(=O)n4ccccc4n3)c2=O)CC1 (stereo not drawn)	0.7	-0.47
C=CCN1C(=O)/C(=C\c2cc(OC)ccc2OC)SC1=Nc1ccccc1	.	0.62
CCN1C(=O)N/C(=C/c2ccc(OCc3ccc(C(=O)O)cc3)cc2)C1=O	0.25	2.2
Cc1ccc(NC(=O)/C=C2\NC(=O)CS2)cc1	0.7	.
C=CCSc1nc2c(cnn2-c2ccc(Cl)cc2)c(=O)[nH]1	0.05	-0.48
CNS(=O)(=O)c1ccc2c(c1)n(C)c(=O)n2C	0.05	.
Fc1ccccc1CSc1nc(NCC2CCCO2)c2ccccc2n1 (stereo not drawn)	.	-0.055
CC1CC(C)CN(S(=O)(=O)c2ccc(NC(=O)C(C)N3C(=O)C4CC=CCC4C3=O)cc2)C1 (stereo not drawn)	-1.2	.
COC(=O)C(C)Sc1nc2cc(Cl)ccc2s1 (stereo not drawn)	-1	.
Cc1cc(C)n2c(SC(C)C(=O)NC3(C#N)CCCCC3)nnc2n1 (stereo not drawn)	-0.7	.
COC(=O)C1=C(N)Oc2c(oc(CO)cc2=O)C1c1cccc(OC)c1 (stereo not drawn)	-0.75	.
Cn1nc(C2CC2)cc1NC(=O)Nc1ccc(OC(F)(F)F)cc1	0	0.63
COc1ccc(-c2nnc(NC(=O)/C=C/c3ccccc3)o2)cc1	-0.25	0.14
Cc1ccc(C)c(N2CCN(S(=O)(=O)c3ccccc3OC(F)(F)F)CC2)c1	.	0.25
Cc1c(C#N)sc2ccccc12	-0.8	-0.92
O=C(CSc1n[nH]c(-c2ccccc2Cl)n1)NC1CCCCC1	-0.65	-0.49
COc1cccc(CCNS(=O)(=O)c2ccccc2Cl)c1	.	-0.24
CC(C)OCc1nc2ccccc2n1C	0.5	1.9
Cc1ccc(-c2nn(-c3ccccc3)cc2/C=C2/NC(=S)N(c3ccccc3)C2=O)o1	.	-0.2
Cc1cc(C)c(C)c(S(=O)(=O)N2CCN(c3ncnc4sc5c(c34)CCCC5)CC2)c1C	-1	-0.99
Cc1cc2ncn(C(=O)N3CCCCC3)c2cc1C	0.35	.
CC1CC(C)CN(CC(=O)Nc2cccnc2Cl)C1 (stereo not drawn)	-0.15	.
O=C(Cn1c2c(c(=O)n3ncnc13)CCC2)N/N=C/c1cccnc1	-0.7	0.2
CNC(=O)Sc1c(-c2ccc(Cl)cc2)nn(C(=O)NC)c1SC	1.5	-1
CCC(=O)Nc1cccc(C(=O)N/N=C/c2ccccc2C#N)c1	.	0.55
Cc1ccc2c(c1)/C(=C/c1ccncc1)c1cc3ccccc3nc1-2	-0.35	0.96
C=CCNC(=O)c1cc(-c2ccc(C)c(C)c2)nc2ccccc12	0.25	-0.55
COc1ccc(N=C2SCCCN2C)cc1	-0.2	.
O=C(Nc1ccc(-c2nc3ccccc3o2)cc1)c1ccc(Oc2ccccc2)cc1	-0.6	-0.59
CCCc1[nH]n(-c2ccc(F)cc2)c(=O)c1C(C)=Nc1ccc(S(N)(=O)=O)cc1	-0.4	.
O=C(OCc1nc2ccccc2s1)c1cc(Cl)ccc1Cl	-0.25	i

# Structural class, the entries above containing a thiophene ring, fused or not
SMILES	AID504770	Ba CapD inh
Cc1c(C#N)sc2ccccc12	-0.8	-0.92
Cc1cc(C)c(C)c(S(=O)(=O)N2CCN(c3ncnc4sc5c(c34)CCCC5)CC2)c1C	-1	-0.99

# Following part:
SMILES	AID504770	Ba CapD inh
COc1ccccc1C(=O)N=C1NC(=O)CC2C(=O)NCCN12 (stereo not drawn)	-1.5	.
CC(=O)OCC(=O)c1ccc2c(c1)CCN2C(C)=O	-1	1.8
CCCN(Cc1nnc(-c2ccco2)o1)C(=O)CSc1nnc(-c2ccc(Cl)cc2)o1	1.3	.
Cc1ccc(C(=O)COC(=O)c2ccc(-n3cccn3)cc2)s1	-0.15	.
Cc1cccc(CN2C(=O)/C(=C\c3ccc(C(=O)NCc4cccnc4)cc3)Sc3ccccc32)c1	1.3	12
O=C(NC(c1ccccc1)c1ccccc1)OCCc1ccccc1F	.	-0.89
CN(Cc1ccc(Cl)s1)C(=O)CSc1nnc2n1CCCCC2	0.6	.
Clc1ccc(-c2nnc3n2CCCC3)cc1Cl	1.8	-0.51
c1ccc2c(CN3CCCNCC3)cccc2c1	-0.75	-1.2
CCOC(=O)c1c(-c2ccccc2Cl)csc1NC(=O)CC	-0.15	0.43
CCc1ccc(C(c2c(C)[nH][nH]c2=O)C(C#N)C#N)cc1 (stereo not drawn)	-0.95	.
CC1CCCCC1NC(=O)CN(C)S(=O)(=O)c1cccc2cccnc12 (stereo not drawn)	0.1	1.4
Cc1ccc(NC(=O)c2c(C)[nH]c(=S)c(C#N)c2-c2cccs2)c(C)c1	.	-0.25
COc1ccc(-c2ccnc(-c3ccncc3)n2)cc1	-0.55	1
Cc1ccc(N2CCN(c3ccc(C)cc3)C2c2ccc(OCC(N)=O)cc2)cc1	.	25
CC(=O)c1ccc(NS(=O)(=O)c2ccc(Cl)c(C(=O)Nc3ccc(Br)cc3)c2)cc1	.	-0.32
FC(F)(F)c1ccc2[nH]c(=S)[nH]c2c1	.	6.2
COc1cc(/C=C2\N=C(c3cccc([N+](=O)[O-])c3)OC2=O)cc(Br)c1OC(C)=O	.	-0.67
O=C(Nc1ccc(Oc2ccc(Br)c3ccccc23)c(Cl)c1)c1c(F)cccc1F	.	0.25
CC1CCCCC1Nc1ncnc2c1oc1ccccc12 (stereo not drawn)	0.15	.
Nc1ccc(S(=O)C(F)(F)F)cc1 (stereo not drawn)	0.4	0.44
COc1cc(COC(=O)N[C@@H](Cc2c[nH]c3ccccc23)C(=O)O)cc(OC)c1	-0.4	0.02
COC(=O)c1c(C)cc(=O)n2c1[nH]c1ccccc12	-1.2	79
CN1C2CCC1CC(N(CCc1c[nH]c3ccccc13)C(=O)c1ccc(F)cc1)C2 (stereo not drawn)	.	0.29
O=C(O)C1Sc2c(sc(=O)n2Cc2ccccc2)C2c3ccccc3OC(=O)C12 (stereo not drawn)	-0.35	0.095
CCNc1nc(NC(N)=S)nc(NC(C)(C)C)n1	-0.3	.
COc1ccc(-c2nc3c(=O)n(C)c(=O)nc-3n(C)n2)cc1OC	-0.25	-0.24
COc1ccc(C(=O)Oc2ccc3c(=O)c(-c4ccccc4Cl)coc3c2)cc1OC	.	-0.075
O=C(CN1CCN(c2ccc(C(F)(F)F)cn2)CC1)Nc1ccc(OC(F)(F)F)cc1	.	-0.26
Cc1cc(C(O)(C(F)(F)F)C(F)(F)F)cc(C)c1O	0.2	0.65
NCc1c(Cl)cc(C(F)(F)F)cc1Cl	-0.1	-0.6
COc1ccc(C2=NN(S(=O)(=O)c3ccccc3)C(c3cccc([N+](=O)[O-])c3)C2)cc1 (stereo not drawn)	.	0
CSC1=NC(=Nc2cccc(C(F)(F)F)c2)C2(CCCCC2)N1c1ccccc1Cl	.	-0.4
COc1ccc(C2NC(C(=O)O)Cc3c2[nH]c2ccccc32)cc1OC (stereo not drawn)	.	12
O=C(Nc1ccccc1F)c1ccc(S(=O)(=O)N2CCCC2)cc1	1.5	-0.04
O=C(O)c1cc2ccc(O)cc2oc1=O	0	90
O=C(c1ccccc1)N1CCCCC1	-0.1	0.11
N/C(CSc1ccc(Cl)cc1)=N\NC(=O)c1ccc(Cl)cc1	.	0.74
CCC(C)c1ccc(NC(=O)NC(C)(C)C)cc1 (stereo not drawn)	-0.6	-0.91
CC(=O)Nc1ccc(S(=O)(=O)Nc2c(C)n(C)n(-c3ccccc3)c2=O)cc1	.	-0.33
CN(C(=O)CSc1nc2ccccc2c(=O)n1Cc1ccccc1)c1ccccc1	-1	-0.29
CCOC(=O)/C(C#N)=c1/s/c(=C2\C=Cc3ccccc3N2CC)c(=O)n1CC	1.1	0.035
Cc1ccc2cc(NC(=O)c3ccccc3C)ccc2n1	.	1.5
O=C(O)c1cc(NC(=O)C2CC2)cc(NC(=O)C2CC2)c1	-0.75	0.41
O=C(O)COc1cc(Cl)ccc1O	-0.1	0.06
Nc1n[nH]c(Cc2ccccc2)c1-c1ccccc1	-0.75	0.29
O=C(CSc1nccn1-c1ccccc1)Nc1ccccc1	-0.85	-0.46
N#CC(C(=O)c1cc(F)c(F)cc1Cl)c1ccccn1 (stereo not drawn)	-2.5	-1.4
O=C1c2ccccc2S(=O)(=O)N1Cc1ccc(-c2csnn2)cc1	-1.1	1.7
COC(=O)COC(=O)Cc1c(C)n(C(=O)c2ccc(Cl)cc2)c2ccc(OC)cc12	-0.25	-0.57

# (next part)
SMILES	AID504770	Ba CapD inh
Fc1ccc(C(c2nnnn2C2CCCC2)N2CCc3ccccc32)cc1 (stereo not drawn)	-0.85	.
COC(=O)C(NC(=O)c1ccccc1Cl)(Nc1sc2c(c1C#N)CCC(C)C2)C(F)(F)F (stereo not drawn)	.	-0.11
COC(=O)c1ccc2c(c1)N=C(C)c1cc(C)ccc1S2	-1.3	8.1
Cc1c(C(=O)O)nnn1-c1ccccc1Oc1ccc(Cl)cc1Cl	0.05	0.46
CC(C)OC(=O)CSc1nnc(-c2cnccn2)n1-c1ccccc1	-0.65	0.035
CCn1c(SCC(=O)Nc2ccc3c(c2)OCO3)nc2ccc(Br)cc2c1=O	-0.35	.
O=C(c1ccc(F)cc1)N1C=CC(C(F)(F)F)=NCC1	1.9	-0.88
Cc1nc2ccccc2n1C(=O)/C=C\C(=O)O	1	0.53
COc1cccc(C(=O)Nc2cccc(C)n2)c1	-0.2	-0.06
O=C1/C(=C/c2ccc3c(c2)OCO3)COc2ccccc21	-0.6	.

# 4 entries picked at random from those above:
SMILES	AID504770	Ba CapD inh
O=C1/C(=C/c2ccc3c(c2)OCO3)COc2ccccc21	-0.6	.
Fc1ccc(C(c2nnnn2C2CCCC2)N2CCc3ccccc32)cc1 (stereo not drawn)	-0.85	.
COC(=O)c1ccc2c(c1)N=C(C)c1cc(C)ccc1S2	-1.3	8.1
COC(=O)C(NC(=O)c1ccccc1Cl)(Nc1sc2c(c1C#N)CCC(C)C2)C(F)(F)F (stereo not drawn)	.	-0.11

# Next section:
SMILES	AID504770	Ba CapD inh
Cc1ccc2oc(=O)c3cnn(CC(=O)Nc4ccccc4N4CCN(C)CC4)c3c2c1	-1.9	-0.25
CCOC(=O)c1c(NC(=O)c2ccc(Cl)cc2)sc(C(=O)Nc2ccccc2C(F)(F)F)c1C	.	1.4
Cc1ccc(-c2nc3ncccc3n2OCc2ccccc2Cl)cc1	.	-0.17
CCc1c(O)nc(SCCN(CC)CC)n(-c2ccccc2)c1=O	-0.5	-0.6
N#Cc1c(Nc2ccccc2)c(/C=N/N)c[nH]c1=O	0.9	1.2
Cc1nc2c(c(-c3ccccc3)c1C#N)C(=O)c1ccccc1-2	-0.55	-0.81
COc1ccc(CCNC(=O)CSc2cn(C)c3ccccc23)cc1OC	-0.3	-0.18
CC1(C)CC(NC(=O)c2cccc3ccccc23)CC(C)(C)N1	-0.8	0.14
CCOC(=O)C1=C(N)n2c(s/c(=C/c3ccccc3)c2=O)=C(C(=O)OCC)C1c1ccccc1 (stereo not drawn)	.	0.45
Cn1c(=O)c2cc(C(=O)NC3CC3)sc2c2ccccc21	2.3	6.7
CSC1=Nc2ccccc2CN1c1ccc(Br)cc1	-0.2	0.12
Cc1oc2c(c1C(=O)NCCCN1CCOCC1)C(=O)c1ccccc1C2=O	-1.4	-0.24

# Source: PubChem BioAssay (ICCB-Longwood Screening Facility, Harvard Medical School)
